Screening data (PubChem BioAssay)
BJeLR lethal: BJeLR cell viability loss; hit rate 0.17% among 300,000; BJeLR (HRASV12) viability, CellTiter-Glo ATP luminescence, 48 h; reference of the scale not given here; inhibition, % (concentration not given with the values); AID 1554;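 active = replicate mean above 50%; inconclusive = above 50% but judged a plate artefact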;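 also: 50 nL library stock added to about 25 µL; numbers are from one replicate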
PrP UTR inh: inhibition of PrP 5' UTR reporter expression; cell-based PrP 5' UTR mRNA reporter, plate reader; inhibition, % (concentration not given with the values); hit rate 0.35% among 340,000; AID 488862;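 active = every replicate at 50% or more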;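 also: 0 = median of the neutral control wells; tested in H4 reporter cells; numbers are from one replicate; inactives centre near -14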
Bead autofluor: counter-screen for toxin protease inhibitors: compound fluorescence | compound autofluorescence counterscreen, microsphere flow cytometry; hits give high values | hit rate 3.1% among 360,000 | fluorescence intensity (concentration not given with the values);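 active = at least 3 SD above the mean of all compounds, about 16000 in these data; inconclusive = too few beads counted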;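 also: 100 nL of 1 mM stock went into each well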
Sa ugtP lethal: kills S. aureus RN4220 lacking UgtP; AID 1259309; hit rate 0.54% among 330,000; growth inhibition, % (concentration not given with the values); S. aureus RN4220 ugtP deletion, OD600 growth, 16 h; some inactives read as strong as hits;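 active = z-score under -3 and OD600 up to 0.15 on both plates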;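 also: plate controls were untreated wells for no effect and antibiotic for full effect; wells of about 80 µL received 100 nL stock; the first replicate is given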
Mtb hypoxia inh: inhibitors of hypoxia-regulated fluorescent reporter in Mycobacterium tuberculosis; M. tuberculosis hypoxia-regulated fluorescent reporter, fluorescence; fluorescence inhibition, % (concentration not given with the values); hit rate 0.1% among 300,000;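 active = 35 to 45% if threefold the growth effect, above 45% if 1.5-fold the growth effect; inactive = the rest, general growth blockers included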;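 also: wells of about 50 µL received 100 nL stock; 0% = vehicle wells and 100% = reference inhibitor wells; whole bacteria with a GFP reporter of the hypoxia response; strong numbers were not always called active; many hits fall short of the cut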
Sa RN4220 lethal: S. aureus RN4220 growth inhibition | inhibition, % (concentration not given with the values) | OD600, 16 h | hit rate 0.33% among 330,000 | AID 1259311;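 active = z-score of -3 or lower and OD600 up to 0.18 on both plates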;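 also: plate controls were untreated cells for no effect and reference antibiotic for full effect; stock transfer was 100 nL into about 80 µL; one replicate is shown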
Mtb hypoxia inh growth: further read-out of Mtb hypoxia inh, marked with its call; growth inhibition, %; measured here: M. tuberculosis growth (absorbance);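 0% = vehicle and 100% = reference antibiotic; read after six days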
* marks the source's active call; other numbers are inactive results; ? = inconclusive; / = not tested or not shown.

Molecule	BJeLR lethal	PrP UTR inh	Bead autofluor	Sa ugtP lethal	Mtb hypoxia inh	Mtb hypoxia inh growth	Sa RN4220 lethal
COc1ccc([N+](=O)[O-])cc1NCC(=O)Nc1cccc(S(=O)(=O)N2CCCC2)c1	/	-24.5	5366	0.8	-2.7	0.5	0.8
Cc1c(OC(C)C(=O)NCCCN2CCCC2=O)ccc2c3c(c(=O)oc12)CCCC3 (stereo not given)	3.1	3.5	6515	-0.2	7.5	12.7	2.7
COc1ccc(-n2c(CCc3ccccc3)nnc2SCC(=O)c2ccc(Cl)cc2)cc1	-0.6	-12.0	2457	-19.2	0.0	-0.8	3.5
COc1ccc(CN2CCC3C=CCC(C(=O)NCCc4ccccc4)C3C2=O)cc1OC (stereo not given)	/	/	/	3.2	12.4	8.2	5.4
CCCCN(CC)C(=O)c1cc2c(=O)[nH]c3ccc(C)cc3c2s1	2.0	-8.7	5420	-9.3	6.9	7.5	14.1
CC(C)(C)NS(=O)(=O)c1ccc(OCC(=O)NCc2ccco2)cc1	33.3	-12.8	4123	3.6	13.1	7.1	9.5
COc1ccc(CCC(=O)N(C)CC(=O)Nc2ccc(Cl)c(C(F)(F)F)c2)cc1	-7.9	-17.0	5699	-14.8	2.6	-1.5	-18.5
CCn1c(=O)c([N+](=O)[O-])c(N2CCOCC2)c2ccccc21	0.8	-31.3	2155	8.3	7.3	8.7	2.5
O=C(C[n+]1cccc(CO)c1)Nc1nc2ccccc2s1	3.6	-27.9	4928	9.4	1.5	13.8	-1.1
Cc1occc1C(=O)Nc1c(F)cc(F)cc1Br	-3.1	-7.4	11240	6.8	1.5	3.2	5.0
NC(=NCCc1c[nH]c2ccccc12)NS(=O)(=O)c1ccc(F)cc1	-6.1	4.3	2049	-6.6	3.9	-2.0	2.5
NNC(=O)Cn1nc(-c2ccccc2)c2ccccc2c1=O	3.3	-5.5	3716	1.1	15.8	4.6	4.1
CCOC(=O)c1ccc(CNC(=O)C2CCCCC2C(=O)OCC(F)(F)F)o1 (stereo not given)	-6.6	-13.8	4884	/	/	/	/
COc1cccc(NC(=S)/C(=C(\[O-])c2ccc(C)c([N+](=O)[O-])c2)[n+]2ccccc2)c1	2.2	-26.6	2707	9.8	-0.8	-0.8	7.2
O=C(O)c1ccccc1-c1ccccc1C(=O)Nc1cccc(Br)c1	4.5	-27.1	3937	9.5	/	/	2.3
O=C1CCN1C1(C(=O)NC2CCCCC2)CCCC1	7.4	0.5	2460	6.3	5.1	7.9	2.9
COc1cccc(NC(=O)CC2SC(=NS(=O)(=O)c3ccccc3)N(c3ccccc3)C2=O)c1 (stereo not given)	/	/	/	8.6	-3.1	-1.8	-1.1
O=c1c2ccccc2n2cnnc2n1-c1ccccc1	-5.8	-7.2	3446	-5.4	2.8	6.7	2.0
CCNc1nc(C#N)nc2c1ncn2-c1cc(F)cc(F)c1	/	15.3	4722	-5.2	7.7	-1.8	-5.8
COC(=O)c1sc(NC(=O)c2ccco2)nc1C	2.5	-30.9	3311	-5.3	8.0	1.0	-14.9
O=C1[C@@H]2CSCN2C(=O)CN1Cc1cccc(C(F)(F)F)c1	6.7	-11.1	3998	2.7	10.3	1.3	3.2
O=C(NCCc1csc(-c2cccnc2)n1)c1cccc2ccccc12	-2.2	-10.4	5942	18.3	-7.4	-1.8	22.2
COc1ccc(NC(=O)COc2ccc(N(C)S(=O)(=O)c3ccc(Cl)cc3)cc2)cc1OC	1.8	-12.1	?	/	/	/	/
O=C(CSc1oc(-c2ccc(F)cc2)nc1S(=O)(=O)c1ccccc1)NCC1CCCO1 (stereo not given)	-1.4	-3.4	3755	-5.5	-5.2	-2.5	0.0
C=CCOc1ccc(C2=NOC(C(=O)Nc3ccc4c(c3)OCCO4)C2)cc1OC (stereo not given)	-14.8	-14.6	4163	11.0	17.2	7.0	2.5
O=C(COc1ccccc1C(=O)Nc1ccccc1)c1ccc(F)cc1	/	-10.4	3810	-0.1	-15.4	-11.4	-20.2
Nc1ncncc1-c1ccccc1Cl	/	-16.2	2833	0.5	5.8	3.8	-0.1
COc1cc2c(cc1OC)C(c1ccccc1)=NCC2	0.7	4.7	2091	5.9	7.2	3.3	4.8
Cc1ccc(SCC(=O)n2nc(C)cc2C)cc1	9.1	-1.9	2330	5.8	-0.8	-2.2	5.4
O=C(Cc1cccc(F)c1)N1CCCC(CO)(Cc2ccc(F)cc2F)C1 (stereo not given)	-3.7	5.5	3357	-12.3	-7.3	2.5	2.4
Cc1noc(C)c1CCC(=O)N1CCCC(CCC(=O)NCc2ccc(F)c(F)c2)C1 (stereo not given)	-5.5	-26.8	2241	7.4	-2.5	-7.0	4.5
CNC(=O)CN1C(=O)c2ccccc2S1(=O)=O	13.2	-24.9	5861	2.0	/	/	-1.7
CCN(CC)CCN(C(=O)c1ccc(S(=O)(=O)N(C)C2CCCCC2)cc1)c1nc2c(C)cccc2s1	5.1	-4.2	5783	8.6	7.3	12.6	-0.4
COc1cc(C(=O)Nc2ccc(S(=O)(=O)NC(C)C)cc2)cc(OC)c1OC	-1.7	-5.2	16279*	2.9	7.0	-0.4	3.8
O=C(Nc1nc(-c2cccnc2)cs1)c1ccc(S(=O)(=O)N2CCOCC2)cc1	-0.8	-3.4	8929	0.5	1.6	13.6	2.2
COc1ccc(S(=O)(=O)N2CCOCC2)cc1NC(=O)c1ccc(=O)[nH]c1	/	-21.8	5414	-1.2	2.6	1.5	1.9
COCC1CCCN(C(=O)c2cc(COc3cccc4cccnc34)on2)C1 (stereo not given)	-1.5	2.6	5522	0.6	1.2	7.3	-1.1
Cc1cc(C)c(NC(=O)CSc2ccc(-c3ccccn3)nn2)c(C)c1	-5.8	-16.6	6101	5.7	2.5	-1.5	4.2
CCc1nc(C)cc(N)c1OCc1ccccc1	-10.4	-21.3	17332*	/	/	/	/
COC(=O)c1cc2sccc2n1Cc1nc(-c2ccc(OC)cc2)oc1C	0.8	-19.2	9673	42.9	-9.1	-2.5	-6.5
Fc1ccc2c(c1)[C@H]1OCC[C@H]1[C@@H](c1ccco1)N2	3.2	-9.8	23934*	1.1	16.1	10.0	7.9
Cc1cccc(C)c1OCc1cc(C(=O)NC2CCC2)no1	-2.0	-17.6	5818	3.9	5.9	9.3	0.1
Cc1cccc(NC(=O)C(c2cccc([N+](=O)[O-])c2)N2CCCCC2)c1 (stereo not given)	-3.6	-21.5	8088	12.3	13.0	11.5	1.6
COc1ccc(NC(=O)CN(C)C(=O)COc2ccccc2Cc2ccccc2)cc1	/	-0.4	8807	3.4	-7.2	3.9	-2.3
COc1ccc(C(C)NC(=O)c2ccc([N+](=O)[O-])cc2)cc1OC (stereo not given)	3.7	-6.8	9987	23.0	-7.6	2.4	-5.1
O=C(COc1ncnc2ccccc12)Nc1cccc(S(=O)(=O)N2CCOCC2)c1	8.7	-16.6	8779	-7.8	9.3	8.3	3.1
COc1cc(NCCCCCCN)c2ncccc2c1OC	/	-0.9	3052	-4.7	16.1	9.8	4.7
CCOC(=O)c1ccc(COc2ccc(C(C)C)cc2)o1	-1.1	-144.6	2341	11.6	3.1	0.7	7.0
Cc1n[nH]c(C)c1CCNCc1ccc(OCC(O)CN2CCCCC2)cc1 (stereo not given)	4.8	-12.6	4290	2.6	0.6	11.2	-0.1
CCOC(=O)c1[nH]c(C)c(C(=O)N2CCC3(CC2)OCCO3)c1C	3.9	-19.3	11868	6.2	5.5	1.2	2.4
CC[C@@]12C(=O)N(c3cccc(Br)c3)C(=O)N1C(c1ccc(Cl)cc1)C1C(=O)N(C3CCCCC3)C(=O)C12 (stereo not given in full)	/	/	/	-36.9	0.3	2.2	0.3
CC(C)CN1C(=O)c2ccc(NC(=O)c3ccco3)cc2C1=O	-6.8	-33.5	4241	11.1	2.5	10.7	1.5
Cc1c([N+](=O)[O-])c(C(=O)Nc2ccc3c(c2)OCCO3)nn1C	13.2	-32.1	3898	-1.8	/	/	0.1
COC(=O)C1=C(c2ccc(F)cc2OCc2ccccc2)CC2CCC1N2C(=O)NCC1CC1 (stereo not given)	/	/	/	-13.8	2.0	1.3	-9.6
CON=C/C(C#N)=C/c1ccc(OC)c(OC)c1	/	/	/	-3.0	6.4	1.0	7.5
O=C(N/N=C/c1cccc(Oc2ccccc2)c1)c1cccc(O)c1	-10.9	-37.2	6398	/	/	/	/
CC(=O)N1CCN(c2cc3c(cc2F)c(=O)c(C(=O)O)cn3C2CC2)CC1	-2.5	-17.1	4329	99.2*	/	/	98.2*
CCCCn1c(NC(=O)c2ccccc2)c(C#N)c2nc3ccccc3nc21	/	-25.9	5517	38.0	2.0	11.7	54.1
C=C(C)CNC(=S)N/N=C/c1ccccc1OCC(=O)O	-8.8	-28.8	4730	/	/	/	/
OC(COc1ccc2ccccc2c1Cl)CN1CCOCC1 (stereo not given)	9.2	-62.2	4381	-2.9	9.9	16.5	0.1

Complete entries, quoted from the list:
CCc1nc(C)cc(N)c1OCc1ccccc1 is listed as BJeLR lethal = -10.4; PrP UTR inh = -21.3; Bead autofluor = 17332*; Sa ugtP lethal = /; Mtb hypoxia inh = /; Mtb hypoxia inh growth = /; Sa RN4220 lethal = /
CC[C@@]12C(=O)N(c3cccc(Br)c3)C(=O)N1C(c1ccc(Cl)cc1)C1C(=O)N(C3CCCCC3)C(=O)C12 (stereo not given in full) is listed as BJeLR lethal = /; PrP UTR inh = /; Bead autofluor = /; Sa ugtP lethal = -36.9; Mtb hypoxia inh = 0.3; Mtb hypoxia inh growth = 2.2; Sa RN4220 lethal = 0.3

Going on with the list.
Molecule	BJeLR lethal	PrP UTR inh	Bead autofluor	Sa ugtP lethal	Mtb hypoxia inh	Mtb hypoxia inh growth	Sa RN4220 lethal
O=C(Cn1c2ccccc2c(=O)c2ccccc21)Nc1cccc(F)c1	6.4	-7.1	2593	7.1	-4.1	0.4	5.0
COc1cccc(N=Nc2c(N)[nH]n3c(=O)cc(-c4ccccc4)nc23)c1	-8.7	-19.6	4235	-13.8	/	/	8.0
CCC(C)n1nccc1NC(=O)C(C)OC(=O)c1cc2ccccc2[nH]1 (stereo not given)	-2.6	-18.2	3527	-6.3	-1.1	8.2	-3.1
C=CCn1c(CCNC(=O)c2cccs2)nnc1SCC(=O)c1ccc(Cl)cc1	3.9	0.6	23328*	-0.3	14.9	1.4	7.6
CC1CN(C(=O)CSc2nc(-c3ccccc3)cs2)CC(C)O1 (stereo not given)	-10.8	0.4	3129	-8.9	5.2	11.3	1.3
O=C(NN=Cc1ccoc1)c1ccccc1	/	/	/	-6.7	10.9	0.0	2.0
